# Source: PubChem (several laboratories)
# BJeLR lethal: kills HRASV12-expressing BJeLR cells; 300,000 tested, 0.17% active; inhibition, % (test concentration not listed); BJeLR (HRASV12) viability, CellTiter-Glo ATP luminescence, 48 h; reference of the scale not given here; AID 1554;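 active = replicate mean above 50%; inconclusive = above 50% but judged a plate artefact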;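 note: 50 nL library stock added to about 25 µL; numbers are from one replicate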
# PrP 5UTR inh: suppresses PrP 5' UTR mRNA reporter expression. AID 488862. cell-based PrP 5' UTR mRNA reporter, plate reader. 340,000 tested, 0.35% active. inhibition, % (test concentration not listed);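 active = every replicate at 50% or more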;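 note: 0 = median of the neutral control wells; tested in H4 reporter cells; numbers are from one replicate; inactives centre near -14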
# RN4220 kill: S. aureus RN4220 growth inhibition; OD600, 16 h; inhibition, % (concentration not given with the values); 330,000 tested, 0.33% active;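 active = z-score of -3 or lower and OD600 up to 0.18 on both plates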;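 note: plate controls were untreated cells for no effect and reference antibiotic for full effect; stock transfer was 100 nL into about 80 µL; one replicate is shown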
# Sa ugtP lethal: compounds lethal to S. aureus RN4220 ugtP deletion mutant. OD600 growth, 16 h; some inactives read as strong as hits. 330,000 tested, 0.54% active. AID 1259309. growth inhibition, % (test concentration not listed);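 active = z-score under -3 and OD600 up to 0.15 on both plates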;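 note: plate controls were untreated wells for no effect and antibiotic for full effect; wells of about 80 µL received 100 nL stock; the first replicate is given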
# Mtb hypoxia rep: Mtb hypoxia fluorescent reporter inhibition; M. tuberculosis hypoxia-regulated fluorescent reporter, fluorescence; fluorescence inhibition, % (concentration not given with the values); 300,000 tested, 0.1% active;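 active = 35 to 45% if threefold the growth effect, above 45% if 1.5-fold the growth effect; inactive = the rest, general growth blockers included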;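 note: wells of about 50 µL received 100 nL stock; 0% = vehicle wells and 100% = reference inhibitor wells; whole bacteria with a GFP reporter of the hypoxia response; strong numbers were not always called active; many hits fall short of the cut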
# Autofluor counter: counter-screen for toxin protease inhibitors: compound fluorescence | fluorescence intensity (no concentration beside the values) | compound autofluorescence counterscreen, microsphere flow cytometry; active compounds read high | AID 624483 | 360,000 tested, 3.1% active;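 active = at least 3 SD above the mean of all compounds, about 16000 in these data; inconclusive = too few beads counted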;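 note: 100 nL of 1 mM stock went into each well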
# Mtb hypoxia rep growth: further read-out of Mtb hypoxia rep, marked with its call; growth inhibition, %; measured here: M. tuberculosis growth (absorbance);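 0% = vehicle and 100% = reference antibiotic; read after six days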
# * marks the source's active call; other numbers are inactive results; ? = inconclusive; . = not tested or not shown.
SMILES,BJeLR lethal,PrP 5UTR inh,RN4220 kill,Sa ugtP lethal,Mtb hypoxia rep,Mtb hypoxia rep growth,Autofluor counter
COc1ccc(N(C(=O)c2ccn[nH]2)C(C(=O)NC(C)(C)C)c2ccc(F)cc2)cc1 (stereo unspecified),2,-15,4.2,8,1,3,3280
O=C1C(=O)N(c2ccccc2)C(c2ccccc2)C1c1ccccc1 (stereo unspecified),.,-5,-0.1,13,5,3,3814
CCCCn1cnc2c(sc3nc4c(cc32)CSC(C)(C)C4)c1=O,-19,-35,.,.,.,.,7425
COc1ccc(-n2nnnc2SCc2nc(N)nc(N3CCOCC3)n2)cc1,3,-32,-7.1,2,0,0,2523
O=C(Nc1cnccn1)c1ccncc1,-11,-20,-0.6,11,-5,-6,24053*
CCCN(CC(=O)Nc1ccccc1C)C(=O)c1ccc(OCC(=O)N2CCOCC2)c(OCC)c1,.,-2,1.5,1,19,38,3870
O=C(NC1C2CC3CC(C2)CC1C3)c1ccc(Br)o1 (stereo unspecified),-4,-30,1.2,-4,.,.,3344
CN(CCc1ccccn1)C(=O)CCC1CCCN(C(=O)c2n[nH]c3c2CCCC3)C1 (stereo unspecified),-4,-26,8.1,3,2,18,2977
CC(=O)Nc1ccc(SCC(=O)N2CCN(S(=O)(=O)c3ccccc3)CC2)cc1,-5,-7,6.0,-1,0,0,4181
CCN1CCN(C(c2cccs2)C(C)NC(=O)c2ccccc2F)CC1 (stereo unspecified),1,.,-2.6,19,4,3,8164
COC(=O)[C@@H]1[C@@H](C)N(Cc2ccccc2)C(=O)N[C@H]1c1ccccc1,0,7,.,.,.,.,3189
Clc1cccc(-c2nc3nc4ccccc4nc3n2Cc2ccco2)c1,1,-19,18,0,6,10,4766
Cc1ccc(OCCN2CCN(c3nc(NCc4ccco4)c4ccccc4n3)CC2)cc1,5,-27,-1.3,-26,3,3,7804
Cc1cccc(N(CC(=O)NC2CCCC2)C(=O)c2c(C)noc2C)c1,-8,-16,4.7,8,17,17,3430
O=C(CCC(=O)Nc1ccccc1Cl)N/N=C1\CCCc2ccccc21,-5,-28,.,.,.,.,2237
c1ccc(CCn2c3ccccc3c3nnc(SCc4ccc5nonc5c4)nc32)cc1,11,-11,-0.6,-18,6,6,10129
O=[N+]([O-])c1cccc(S(=O)(=O)N/N=C/c2ccc(O)cc2)c1,-2,-11,.,.,.,.,4377
CC(=O)c1cccc(NC(=O)COc2ccc(S(=O)(=O)N3CCCCC3)cc2)c1,5,-48,2.4,-9,.,.,5325
CSc1ccccc1-n1nnnc1SCc1ccccc1,-7,-9,0.7,-6,9,8,23954*
O=S(=O)(N/N=C\C=C\c1ccccc1)c1ccccc1,3,-19,.,.,.,.,5765

# Single values from the entries so far.
# PrP 5UTR inh result of CCCCn1cnc2c(sc3nc4c(cc32)CSC(C)(C)C4)c1=O reads -35
# BJeLR lethal result of COc1ccc(-n2nnnc2SCc2nc(N)nc(N3CCOCC3)n2)cc1 reads 3

# The list continues:
SMILES,BJeLR lethal,PrP 5UTR inh,RN4220 kill,Sa ugtP lethal,Mtb hypoxia rep,Mtb hypoxia rep growth,Autofluor counter
CCNc1nc(=S)nc(NC(C)C)[nH]1,3,-18,2.8,14,7,-4,2640
O=C(CCc1nnc(CCCCc2ccccc2)o1)NCCn1cccn1,-4,-5,2.9,10,14,9,2572
Cc1cc(C)nc(NNS(=O)(=O)c2c(C)cc(C(C)(C)C)cc2C)n1,.,-25,1.7,-5,5,-9,5979
COc1cc(OC)c(OC)cc1CN(C)C(c1ccccc1)c1nnnn1-c1ccccc1C (stereo unspecified),2,-15,19,-1,.,.,2405
Cc1ccc(C)c(NC(=O)C(NCC(C)(C)N2CCOCC2)c2ccccc2)c1 (stereo unspecified),-3,2,16,8,-7,-3,4639
CCOC(=O)C1=NN(C(C)=O)C2(CC(=O)N(c3ccc(C)c(C)c3)C2=O)C1 (stereo unspecified),4,-9,.,.,.,.,2652
COc1ccc(C2SCC(=O)N2Cc2ccccc2)cc1 (stereo unspecified),-1,-9,4.4,5,10,9,3744
Cc1cc(=O)[nH]c(N/N=C/C(C)c2ccccc2)n1 (stereo unspecified),8,-1,.,.,.,.,3274
O=C(COc1ccccc1Cl)Nc1ccc(N2CCN(C(=O)c3ccccc3)CC2)cc1,11,-14,-2.5,-5,-1,7,?
N#Cc1c(-c2ccccc2)cc(-c2ccccc2)nc1SCCC(=O)O,8,-7,28,0,11,8,3790

# Compounds shown so far containing an aryl methoxy group, in the order listed:
SMILES,BJeLR lethal,PrP 5UTR inh,RN4220 kill,Sa ugtP lethal,Mtb hypoxia rep,Mtb hypoxia rep growth,Autofluor counter
COc1ccc(N(C(=O)c2ccn[nH]2)C(C(=O)NC(C)(C)C)c2ccc(F)cc2)cc1 (stereo unspecified),2,-15,4.2,8,1,3,3280
COc1ccc(-n2nnnc2SCc2nc(N)nc(N3CCOCC3)n2)cc1,3,-32,-7.1,2,0,0,2523
COc1cc(OC)c(OC)cc1CN(C)C(c1ccccc1)c1nnnn1-c1ccccc1C (stereo unspecified),2,-15,19,-1,.,.,2405
COc1ccc(C2SCC(=O)N2Cc2ccccc2)cc1 (stereo unspecified),-1,-9,4.4,5,10,9,3744

# Other records follow.
SMILES,BJeLR lethal,PrP 5UTR inh,RN4220 kill,Sa ugtP lethal,Mtb hypoxia rep,Mtb hypoxia rep growth,Autofluor counter
CCOc1ccc(OCCn2ccnc2)cc1,-5,-18,10,9,2,13,2107
Cc1cc(S(=O)(=O)NC2CCCCC2)ccc1-n1cnnn1,10,-10,11,5,-8,2,4164
COc1ccccc1CCC(=O)OCC(=O)N1c2ccccc2NC(=O)C1(C)C,.,-12,7.8,1,4,7,3365
CCCCCOC(=O)C1C2C=CC3(CN(c4ccccc4C)C(=O)C13)O2 (stereo unspecified),6,-2,-0.1,0,0,5,21724*
Cc1ccc(-c2ccc(C=NNC(=S)Nc3ccccc3)o2)cc1[N+](=O)[O-],.,.,-6.7,-7,4,2,.
NS(=O)(=O)c1ccc(CCNC(=O)C(=O)c2cn(CC(=O)N3CCCC3)c3ccccc23)cc1,5,-10,3.6,8,2,0,6003
c1ccc(-c2cc3ncccc3cn2)cc1,.,-16,-3.3,2,9,3,3042
Cc1oc2c(c(C)cc3oc(=O)c(CC(=O)NCCCO)c(C)c32)c1C,0,-21,2.1,3,18,2,3910
Cc1cc(C(=O)Nc2c(C)nn(Cc3ccc(F)cc3)c2C)on1,15,-2,-0.5,10,4,8,4231
Cc1cc(C)cc(OCC(O)CN2CCC(CN3C(=O)c4cccc5cccc(c45)C3=O)CC2)c1 (stereo unspecified),13,5,1.9,8,25,47,5096
Cc1cccc(NC(=O)c2cc3c([nH]c4ccccc43)c(C)n2)c1C,10,-13,1.0,-12,0,-1,2165
COc1ccccc1N1CCN(/N=C/c2cccc(OC)c2O)CC1,-4,-56,.,.,.,.,2614
CC(C)c1ccccc1-n1cc[nH]c1=S,-4,-10,0.0,1,0,2,3390
Clc1cccc(CN2CCCCCC2)c1,10,-11,2.7,9,3,-3,4262
O=C1OC(c2ccc(Cl)cc2)=N/C1=C\N1CC2CC(C1)c1cccc(=O)n1C2 (stereo unspecified),10,9,1.0,4,5,1,3377
Cn1cc(/C=N/n2cnc3sc4c(c3c2=O)CCCC4)c2ccccc21,3,-4,.,.,.,.,9283
O=c1oc(-c2cccs2)nc2ccc(Cl)cc12,0,-10,8.0,8,-5,-2,2841
CC(=O)CCc1ccc(OCCCCn2cncn2)cc1,10,-16,2.9,9,.,.,2382
Cc1nc(NC(=O)C2CCCCC2)sc1C,-1,-81,0.6,2,2,1,3465
Cn1c(=O)[nH]c(=O)c2c1nc(SCC(O)CO)n2CCCc1ccccc1 (stereo unspecified),12,21,1.4,6,11,16,3691

# Next part; the last 2 above are carried over.
SMILES,BJeLR lethal,PrP 5UTR inh,RN4220 kill,Sa ugtP lethal,Mtb hypoxia rep,Mtb hypoxia rep growth,Autofluor counter
Cc1nc(NC(=O)C2CCCCC2)sc1C,-1,-81,0.6,2,2,1,3465
Cn1c(=O)[nH]c(=O)c2c1nc(SCC(O)CO)n2CCCc1ccccc1 (stereo unspecified),12,21,1.4,6,11,16,3691
Cc1cccc(C)c1NC(=O)CN(C)CC(=O)N1CC(=O)Nc2ccccc21,.,-2,-0.1,-1,-3,15,3941
Cc1ccc(-n2nc(C)c3c2OC(N)=C(C#N)C3c2cccs2)cc1 (stereo unspecified),5,-10,6.9,-7,12,10,8564
CCCNC(=O)CC(NS(=O)(=O)c1ccc(NC(C)=O)cc1)C(C)C (stereo unspecified),3,-24,8.6,3,13,14,3945
COc1ccc(/C(O)=C2/C(=O)C(=O)N(CCCN3CCOCC3)C2c2ccc(N(C)C)cc2)cc1 (stereo unspecified),-8,-21,2.9,6,5,-3,4317
COc1ccc(C(=O)C[n+]2cc(Br)cc3ccccc32)cc1[N+](=O)[O-],-5,-12,-5.6,-3,15,8,6163
O=C(CCNC(=O)c1ccc([N+](=O)[O-])cc1)Nc1ccccc1N1CCOCC1,-2,19,-3.5,-3,2,-2,5183
COc1cc(/C=N\NC(=O)c2cccnc2)ccc1OC(=O)c1ccccc1Cl,11,-19,.,.,.,.,5347
Cc1ccc(NC(c2ccccc2)c2nc3ccccc3[nH]c2=O)cc1 (stereo unspecified),-10,2,22,16,5,13,4076
COc1ccc(CCNC(=O)C23CCC(C)(C(=O)C2=O)C3(C)C)cc1OC (stereo unspecified),-1,-9,4.2,5,5,-3,3644
CCOC(=O)/C(=C/c1c2ccccc2cc2ccccc12)NC(=O)c1ccccc1,-1,-16,-13,-1,17,13,3286
COc1ccc2nc3oc(C(=O)Nc4ccc(OC)c(OC)c4)cc3cc2c1,-7,-20,-2.8,-6,-7,1,3658
CCOc1ccc(C(=O)c2ccncc2)cc1,-5,-10,9.2,1,-2,8,8068
Fc1ccc(-c2nnc(N3CCOCC3)c3ccccc23)cc1F,-10,-17,0.0,7,9,-1,3795
Cc1nn(C)c(C)c1NC(=O)CC12CC3CC(CC(C3)C1)C2,3,-8,0.6,12,1,17,2609
CCc1ccccc1NC(=O)C1CCCN(S(=O)(=O)c2ccc3c(c2)CC(C)N3C(C)=O)C1 (stereo unspecified),10,-26,4.7,8,1,4,4266
NC(=O)c1ccc(NC(=O)CN2C(=O)NC(c3ccccc3)(c3ccccc3)C2=O)cc1,0,-41,3.1,10,2,-5,3053
OCCNCc1ccc(OCc2ccc(Cl)cc2Cl)cc1,-3,-37,-11,-9,23,16,4043
CC(OC(=O)/C(C#N)=C/c1ccc(N(C)C)cc1)C(=O)N(C)c1ccccc1 (stereo unspecified),3,-20,.,.,.,.,?
COc1cccc(C(=O)N2CCN(C3CCN(Cc4ccccc4)CC3)CC2)c1OC,13,-7,3.8,11,18,3,5798
CCSc1nnc(N2C(=O)CC(c3ccsc3)C3=C2CC(C)(C)CC3=O)s1 (stereo unspecified),-13,17,-0.8,15,.,.,6067
CC(=O)N(CCc1ccccc1)Cc1cc2cc(C)ccc2[nH]c1=O,5,-12,3.8,2,-5,4,4478
CCOC(=O)c1c(C)oc2ccc(OS(C)(=O)=O)cc12,7,-41,-2.1,-15,-4,7,4393
O=C(NCc1ccccc1Cl)c1cnccc1C(F)(F)F,-6,-16,4.2,1,16,12,3566
COc1ccc(-c2cc(=O)oc3c(C)c(O)ccc23)cc1,6,3,5.5,-6,7,0,3880
Cc1ccsc1C=NNC(=O)CC(=O)NCc1ccccc1,.,.,7.4,13,8,4,.
CC(C)=C1C(=O)NN(c2ccc(C)c(Cl)c2)C1=O,8,3,6.5,-2,12,7,1896
Cc1ccccc1-c1nc(CS(=O)(=O)CC(=O)N2CCN(C)CC2)c(C)o1,7,-5,0.5,3,1,1,5987
COc1ccc(Cl)cc1NS(=O)(=O)c1cc(Br)cnc1N,-1,5,14,-8,-3,-6,6294
CCC(=O)Nc1cccc(NC(=O)CSc2nnnn2C2CCCC2)c1,6,-2,2.5,6,21,10,7494
CC(=O)Nc1ccc(S(=O)(=O)Nc2nc3nc(-c4ccccc4)cc(-c4ccccc4)n3n2)cc1,0,-13,5.2,8,4,-5,3121
CCOc1cc(/C=C(\C#N)C(=O)Nc2cccc(C(=O)O)c2)ccc1OCc1ccc(Br)cc1,-8,-31,-2.5,-8,-9,-4,5668
O=[N+]([O-])c1cccc(CSc2cccc[n+]2[O-])c1,5,-20,2.0,-1,10,7,4104
C/C(=N\NC(=O)COc1ccc(C#N)cc1)c1ccc(N2CCOCC2)cc1,0,-26,.,.,.,.,2941
Cc1[nH]c(=O)[nH]c(=O)c1S(=O)(=O)N1CCCC(C(=O)N2CCN(c3cccc(C(F)(F)F)c3)CC2)C1 (stereo unspecified),4,-29,5.4,8,6,6,4645
